LANA-H2B inh: blocks KSHV LANA binding to histone H2A/H2B | cell-free LANA-H2A/H2B peptide, fluorescence polarization | inhibition, % (test concentration not listed) | 0.6% of 320,000 active; in the data active = inhibition mostly above about 10%, no sharp cut-off; inactive = mostly below about 6.7%;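 note: stock transfer was 7.5 nL into about 10 µL; 0% = median of vehicle wells and 100% = median of positive control wells; one replicate is shown; the record names a cut of 25% in any replicate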
Target sequence (Q9QR71 whole entry, looked up): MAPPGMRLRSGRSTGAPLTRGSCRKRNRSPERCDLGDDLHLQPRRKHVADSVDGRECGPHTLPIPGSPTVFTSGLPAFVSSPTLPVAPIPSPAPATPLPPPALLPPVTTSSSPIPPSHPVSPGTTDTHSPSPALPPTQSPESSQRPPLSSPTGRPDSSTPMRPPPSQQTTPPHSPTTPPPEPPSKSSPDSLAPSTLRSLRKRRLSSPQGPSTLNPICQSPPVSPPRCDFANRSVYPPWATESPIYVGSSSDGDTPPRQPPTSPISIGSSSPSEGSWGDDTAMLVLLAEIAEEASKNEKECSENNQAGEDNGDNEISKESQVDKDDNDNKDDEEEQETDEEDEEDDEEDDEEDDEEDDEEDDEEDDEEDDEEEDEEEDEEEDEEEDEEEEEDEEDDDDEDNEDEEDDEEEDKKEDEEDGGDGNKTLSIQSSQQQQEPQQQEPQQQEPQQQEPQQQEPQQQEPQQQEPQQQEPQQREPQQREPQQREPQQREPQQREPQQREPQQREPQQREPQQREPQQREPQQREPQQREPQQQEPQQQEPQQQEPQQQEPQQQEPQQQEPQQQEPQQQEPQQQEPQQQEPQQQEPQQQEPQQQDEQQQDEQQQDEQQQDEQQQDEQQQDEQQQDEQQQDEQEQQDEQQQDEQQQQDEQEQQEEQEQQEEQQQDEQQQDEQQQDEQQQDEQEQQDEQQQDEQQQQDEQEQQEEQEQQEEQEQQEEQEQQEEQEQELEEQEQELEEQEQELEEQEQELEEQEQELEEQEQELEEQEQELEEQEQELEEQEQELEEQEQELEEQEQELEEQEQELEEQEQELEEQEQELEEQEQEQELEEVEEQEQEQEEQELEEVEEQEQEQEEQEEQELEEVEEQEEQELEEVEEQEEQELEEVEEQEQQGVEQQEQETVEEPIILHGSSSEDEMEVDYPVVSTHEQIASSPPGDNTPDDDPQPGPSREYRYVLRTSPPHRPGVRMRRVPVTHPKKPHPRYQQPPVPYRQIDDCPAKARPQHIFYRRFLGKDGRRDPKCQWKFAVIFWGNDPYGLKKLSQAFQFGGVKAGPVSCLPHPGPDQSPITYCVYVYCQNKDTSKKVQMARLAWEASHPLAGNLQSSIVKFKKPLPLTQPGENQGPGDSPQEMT
Ecoli growth: E. coli growth inhibition | Escherichia coli growth, OD600, 23 h; active compounds read low | OD600 absorbance (no concentration beside the values) | 0.21% of 330,000 active | AID 1053175;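 active = OD600 absorbance below the run mean of sample wells minus 3.6 SD, in any replicate, cut at about 0.56 in these data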;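 note: stock transfer was 300 nL into about 60 µL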
FGF22 binding: binders of recombinant human FGF22 by thermal shift | Q9HCT0 | SYPRO orange fluorescence; percent of sucrose octasulfate shift, DMSO zero | calls only at 9.99 µM | 1.5% of 340,000 active;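 active = melting point raised past a set limit in the mean and every replicate; inconclusive = no clear call; three in four hits are not shown here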
UCH37 inh: human UCH37 deubiquitinating enzyme inhibition; Q9Y5K5; purified proteasome/UCH37, Ub-AMC cleavage fluorescence; inhibition, % (no concentration beside the values); 0.33% of 330,000 active; AID 588478;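 active = mean of two replicates above 20%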;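 note: 0% = compound-free wells with enzyme and 100% = wells lacking proteasome; stock transfer was 100 nL into about 20 µL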
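Schedule: 30 min plus 25 min, room temperature / Material: human UCH37 within purified proteasomes / Technique: AMC fluorescence intensity at 355/460 nm / Buffer or medium: pH 7.4 Tris-HCl (50 mM) with ovalbumin, ATP-MgCl2, DTT / Controls: wells without proteasome as full block, compound-free enzyme plus substrate as uninhibited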
Beta2AR agonist: agonists of human beta-2 adrenergic receptor inducing internalization. Am2.2-beta2AR cells, FAP receptor internalization, flow cytometry; reference of the scale not given here. 0.43% of 340,000 active. P07550. response, % (test concentration not listed). AID 504454;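 active = response above a set limit, near 3 SD of response in nonfluorescent compounds, cut at about 42% in these data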;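 note: stock transfer was 100 nL into about 11 µL; a reference agonist was the positive control; negative values mostly stem from fluorescent compounds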
HNF4A DNA FP: change in binding of human HNF4 alpha to DNA. P41235. HNF4a-FITC DNA binding, fluorescence polarization, 1 h. 0.3% of 360,000 active. activity change, % at 10 µM; in the data active = activity change above about 30%, passing the limit was not always enough;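 note: controls were the assay level and a saturating level of protein; the project sought stronger binding though the title names inhibitors; some compounds called inactive have numbers as strong as hits; positive values seem to mean higher polarization but the record does not say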
ALR H2O2 inh: inhibitors of human sulfhydryl oxidase ALR; P55789; purified ALR, DTT oxidation, H2O2 HRP-luminol luminescence; inhibition, % (test concentration not listed); 3.8% of 290,000 active; AID 485317;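 active = mean and each replicate at 75% or more; inconclusive = only one of the two met; inactive = neither met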;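 note: stock transfer was 7.5 nL into about 7.5 µL; 0% = neutral wells and 100% = wells with inactivated enzyme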
The depositor's hits bear a star; i = inactive; ? = inconclusive; . = no result given; & = joins results of further samples. This is a subset; the hit share may differ from the screen's.

SMILES	LANA-H2B inh	Ecoli growth	FGF22 binding	UCH37 inh	Beta2AR agonist	HNF4A DNA FP	ALR H2O2 inh
CC(=O)Nc1c(C(=O)C2CC2)oc2ccccc12	-1.3	0.71	i	-2.2	7	4.4	-10
CCOc1cc(/C=N/NC(=O)c2c(-c3ccccc3)noc2C)ccc1O	-3.4	.	i	.	-20	5.3	96*
Cc1coc2c(C)c3oc(=O)c(CCC(=O)N4C[C@H]5C[C@@H](C4)c4cccc(=O)n4C5)c(C)c3cc12	-5.6	0.78	i	-36	-5	2.4	28
COc1ccc(OC)c(C2C3=C(N=C4SCC(=O)N42)c2ccccc2CC3)c1 (centres undefined)	-3.4	0.63	.	1.3	7	4.8	-24
CC(=O)/C(=C/c1ccc(N(C)C)cc1)C(=O)c1ccccc1	-5.6	0.62	.	10.0	3	3.2	50
O=C(Cn1c(=O)sc2ccccc21)NCc1ccco1	2.1	0.71	.	-1.2	3	-3.8	-3
CCN(CC)S(=O)(=O)c1ccc(N2CCOCC2)c(NC(=O)c2cnccn2)c1	.	0.67	.	2.4	-15	-0.2	.
COCCNC(=O)c1ccc2c3n(nc2c1)-c1ccc(Cl)cc1CO3	-3.2	0.57	i	-4.5	-6	-4.1	9
c1ccc(Cn2nnc3c(NCc4ccc5c(c4)OCO5)nc(C4CC4)nc32)cc1	0.9	0.66	.	1.8	-5	2.3	-1
N#C/C(=C\N1CCOCC1)c1ccccc1	-4.4	0.63	.	8.6	0	0.1	22
Nc1nc(COC(=O)C2CCN(C(=O)c3ccc(Cl)cc3)CC2)nc(Nc2ccccc2)n1	0.5	0.71	i	5.3	1	-3.9	-2
O=C(COC(=O)c1cc(S(=O)(=O)N2CCOCC2)c(Cl)cc1Cl)NCc1ccco1	2.7	0.71	i	3.2	3	0.5	-2
O=[N+]([O-])c1ccccc1CNC1CCCc2ccccc21 (centres undefined)	2.5	0.65	i	1.4	5	-2.5	-3
O=C(c1cccs1)N1CCCC(N2CCN(c3cccc(C(F)(F)F)c3)CC2)C1 (centres undefined)	-0.8	0.7	i	0.2	-5	2.1	0
Cc1nnc(NC(=O)CCC(=O)NCc2ccco2)s1	8.1	0.78	.	-2.0	9	-2.5	0
O=c1c2ccccc2c(C=Nc2cccc(S(=O)(=O)NCc3ccco3)c2)c(O)n1-c1ccc(Cl)cn1	-4.1	0.73	.	1.7	0	3.7	-14
CSc1ccccc1C(=O)N1CCC(CCC(=O)NC2CC2)CC1	6.0	0.73	i	0.0	0	1.2	-11
Cn1c(Cc2ccccc2)nnc1SCC(=O)N1CCCCC1	-2.6	0.71	.	-0.2	0	3.2	.
CCOc1ccc(S(=O)(=O)N(C)CC(=O)NCc2ccc3c(c2)OCO3)cc1	-1.2	0.66	i	6.3	8	-0.8	1
CCOCCn1ccc2c(OCC(=O)Nc3cc(OC)ccc3OC)cccc2c1=O	3.8	0.62	i	0.7	16	-0.3	-4
Cc1nn(Cc2c(F)c(F)c(F)c(F)c2F)c(C)c1NC(=O)c1c([N+](=O)[O-])c(C)nn1C	5.1	0.69	.	2.3	-3	4.8	-14
c1csc(CNc2ncnc3nc[nH]c23)c1	-0.2	0.71	i	4.5	0	-1.8	-4
Cc1c(Cl)cccc1NC(=O)Cn1cccc1	-1.2	0.74	.	2.0	3	1.6	-3
CC(C)(C)SCCNC(=O)CN(c1ccc(F)cc1)S(C)(=O)=O	-6.4	0.73	.	3.9	-1	0.4	0
CCNC(=S)Nc1ccccc1-c1ccccc1	2.0	0.68	i	1.9	0	2.8	?
COc1ccc(N2CCN(C(=O)CCN3C(=O)c4ccccc4S3(=O)=O)CC2)cc1	1.4	0.72	.	5.6	9	-0.6	?
CCc1nnc(NC(=O)CSc2nc(C)nc3c2c(=O)n(C)c(=O)n3C)s1	1.5	0.7	i	5.2	-4	0.6	1
CCCn1c(SCC(=O)Nc2ccccc2C(=O)OC)nc2c1c(=O)n(C)c(=O)n2C	1.8	0.75	.	-1.8	-8	-1.4	2
O=c1c2c(-c3ccccc3)csc2ncn1/N=C/c1cccc([N+](=O)[O-])c1O	-8.1	.	i	.	11	5.9	.
O=C(CSc1n[nH]c(-c2ccccc2)n1)Nc1ncccn1	0.4	0.68	.	2.5	1	-0.4	-10
COc1ccc(NC(=O)Nn2cnnc2)cc1OC	1.1	0.71	i	1.9	-4	-3.1	-14
COc1ccc(NC(=O)CSCC(=O)N2c3ccccc3CCc3ccccc32)cc1	-1.0	0.68	i	1.4	16	2.9	.
CC1(NC(=S)N(CCO)CCO)CCS(=O)(=O)C1 (centres undefined)	6.1	0.68	.	-23	11	1.6	-8
COC(=O)c1ccc(Cn2c(O)c(N=O)c3ccccc32)o1	-0.7	0.7	.	-0.5	13	-4.0	1
COC(=O)c1cccc(N(C(=O)CNC(=O)c2cccs2)C(C(=O)NCC2CCCO2)c2ccc(OC)c(OC)c2)c1 (centres undefined)	5.1	0.69	i	4.7	-12	0.4	.
O=C(Nc1ccc(Cl)c(S(=O)(=O)N2CCOCC2)c1)C1CCC1	-5.1	0.71	i	-1.6	0	-3.0	1
Cc1ccc(S(=O)(=O)N2CCCN(C(=O)CNC(=O)c3ccccc3)CC2)cc1	.	0.67	i	0.8	-2	0.0	.
C/C(=N\N=C1\NC(=O)CS1)c1cccs1	-4.0	.	i	.	0	-3.1	0
Cn1cc(CN2CCN(c3ncccn3)CC2)c(-c2cccc(Cl)c2)n1	-3.6	0.68	i	3.4	5	1.3	-3
CCc1ccc(OCC(=O)NNC(=O)c2cc3ccccc3o2)cc1	-1.5	0.69	.	1.0	-9	-2.1	3
COc1ccc(-n2nnnc2SCC(=O)c2ccc(O)c(O)c2)cc1	-0.4	0.72	.	4.9	29	-4.9	.
Brc1cccc(CN2CCN(c3ncccn3)CC2)c1	5.6	0.69	i	4.0	-3	5.7	31
O=C(Nc1ccn(Cc2ccccc2)n1)c1n[nH]c([N+](=O)[O-])c1Cl	2.5	0.66	.	6.6	23	-0.6	94*
COc1ccccc1N1CCN(C(=O)c2ccc3c(=O)n(Cc4ccc5c(c4)OCO5)c(=O)[nH]c3c2)CC1	2.0	0.69	.	1.1	5	0.1	-15
COc1cc(OC)cc(C(=O)N[C@H](C(=O)NCc2ccc(F)cc2)C(C)C)c1	2.9	0.61	i	2.3	-7	0.2	.
O=C(COC(=O)/C=C/c1ccccc1Cl)NC(=O)NC1CCCC1	.	0.65	i	-0.1	-4	-0.3	.
COCCNC(=S)N1CCc2cc(OC)c(OC)cc2C1COc1ccc(C(C)C)cc1 (centres undefined)	-0.6	0.69	i	1.2	2	-0.3	-2
COCCN(CCOC)C(=O)CCn1c(=O)oc2ccccc21	3.4	0.68	.	0.1	3	4.4	-11
Cc1nn(Cc2ccccc2Cl)c(Cl)c1C(=O)NCCc1ccccc1	-3.9	0.7	.	1.1	-7	1.0	0
N#C/C(=N\Nc1cccc([N+](=O)[O-])c1)C(=O)c1ccc(Br)cc1	2.7	.	i	.	21	-0.8	-3

Other entries:
SMILES	LANA-H2B inh	Ecoli growth	FGF22 binding	UCH37 inh	Beta2AR agonist	HNF4A DNA FP	ALR H2O2 inh
CCCCNc1c(-c2ccc(SC3CCCCC3)c(OC)c2)nc2ccc(C)cn12	0.8	.	i	.	21	0.1&7.2	-4
CN(c1ccc(C(=O)NCc2cccnc2)cc1)S(=O)(=O)c1ccc(Cl)cc1	-5.2	0.67	i	-0.5	-3	1.1	-26
Cc1cc(C)nc(NS(=O)(=O)c2ccc(NC(=O)C3(c4ccc([N+](=O)[O-])cc4)CCCC3)cc2)n1	1.6	0.7	.	-0.8	4	-0.3	-5
Brc1cc2c(cc1Br)OCCOCCOCCOCCO2	-5.0	0.68	i	-1.6	-6	-2.8	3
O=C(c1ccco1)N(Cc1cc2ccccc2[nH]c1=O)C1CCCCC1	-3.4	0.64	.	1.4	1	0.5	7
CN(C)C(=S)NC(=O)c1cccc(Cl)c1	0.0	0.69	i	4.9	1	-1.8	11
O=C(NCC(=O)N1CCCCC1)c1ccc(Br)o1	3.5	0.72	i	-1.0	6	-0.5	-2
COCCn1c(C)cc(C(=O)COC(=O)c2ccc[nH]c2=O)c1C	-1.5	0.65	.	3.5	-8	-1.9	1
O=C(Nc1ccc(F)cc1)C(=O)c1c(O)[nH]c2ccc([N+](=O)[O-])cc12	0.4	0.71	.	9.2	3	-2.3	-3
COc1ccccc1C1C2=C(COC2=O)Nc2cc3c(cc21)OCO3 (centres undefined)	2.8	0.7	.	-57	30	-0.1	98*
COCCNc1oc(-c2cccs2)nc1S(=O)(=O)c1ccc(C)cc1	-1.5	0.68	i	-26	-12	4.2	26
CCOC(=O)N1CCN(C(=O)c2ccc(S(=O)(=O)Nc3cccc(C(F)(F)F)c3)cc2)CC1	1.7	0.65	.	4.3	9	-9.8	-2
O=C(c1cc2ccccc2o1)N1CCN(S(=O)(=O)c2ccc(F)c(F)c2F)CC1	-1.7	0.66	i	0.7	16	5.2	0
CSc1ccn(CCC(=O)O)c(=O)n1	2.7	0.7	.	0.6	-3	-0.8	-3
CNC(=S)N(CCO)Cc1cc2cc3c(cc2[nH]c1=O)OCCO3	16	0.64	i	-92	-7	-4.0	.
CC1(C)CCC(=O)c2ccccc21	.	0.65	i	2.0	7	0.5	.
O=C(NNc1nc2ccccc2s1)Nc1ccccc1	8.8	.	i	.	-2	0.8	57
O=C(NCCCN1CCOCC1)c1cnn2c(-c3ccccc3)cc(-c3ccccc3)nc12	-0.1	0.64	.	-157	13	0.6	94*
O=C(CSc1ncn[nH]1)N1CCN(c2nnc(-c3ccccc3)c3ccccc23)CC1	-0.6	0.69	.	7.2	-9	-1.5	24
Cc1ccc(C)c(NS(=O)(=O)c2ccc3c(c2)NC(=O)CO3)c1	.	0.64	i	0.3	-1	-0.3	-18
NC(=O)c1cc(-c2ccccc2)nc(Oc2ccccc2)n1	0.8	0.66	.	2.9	-12	-1.2	-4
Cc1cc(C(=O)NC(=S)Nc2ccccc2N2CCCC2)ccc1[N+](=O)[O-]	2.5	0.69	i	2.2	-1	-3.6	.
CC1(C)CC(=O)/C(=C(\O)Cc2ccccc2)C(=NCCCCCC(=O)O)C1	-4.4	0.64	.	3.5	-9	1.0	2
Cc1ccc(S(=O)(=O)NCc2ccc(C(=O)N3CCN(c4ccc([N+](=O)[O-])cc4)CC3)cc2)cc1	1.5	0.77	i	5.7	-4	0.2	-2
O=C(O)c1ccc(/C=N/n2cc(-c3ccccc3)[nH]c2=S)cc1	2.0	.	i	.	0	-4.8	99*
COc1ccc(NC(=O)COC(=O)c2cc(SC)ccc2Cl)c(OC)c1	1.0	0.67	.	-5.4	4	4.5	-3
Cc1ccc(NC(=O)COC(=O)c2sccc2C)cc1S(=O)(=O)N1CCOCC1	4.7	0.69	i	-0.2	-9	-1.6	-5
O=C(c1ccccc1F)N1CCN(c2ccc([N+](=O)[O-])cc2-n2cccc2)CC1	-0.7	0.68	i	2.9	-2	-0.1	.
O=C(CSCc1ccc([N+](=O)[O-])cc1)Nc1ccccc1C(=O)O	1.9	0.68	.	0.2	-4	-0.9	33
CCCCC(=O)Nc1ccc(C(=O)NNC(=S)NC(=O)c2ccccc2[N+](=O)[O-])cc1	-5.7	0.69	i	9.2	-5	-1.4	18
Cc1cc(C)nc(NS(=O)(=O)c2ccc(N/C=C/C(=O)c3ccc(Cl)cc3)cc2)n1	.	.	.	-3.4	14	2.9	.
